miR-21 FLuc = raises the signal of a miR-21 reporter. HeLa miR-21 FLuc reporter, luciferase, 48 h. Potency, µM (top dose mostly 38.3 µM), without a hit: at the top dose reporter change, positive = more light. 340,000 tested, under 10 active; active = well fitted rising curve with a large enough effect; inconclusive = small, poorly fitted or top-dose-only effect; inactive = no such curve, though single readings can be large or run the other way;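 further: % of control where 0% means no effect; miR-21 action dims this reporter so a rising signal means less miR-21 action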
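Luminescence from a firefly luciferase reporter carrying a miR-21 binding site downstream, stably expressed under a CMV promoter in HeLa cells that make miR-21 endogenously, reports miRNA modulation after 48 h compound exposure up to approximately 40uM final.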
Numbers without * were called inactive; ? = inconclusive.

A first look:
SMILES	miR-21 FLuc
Cc1c(C(=O)N(Cc2ccco2)Cc2ccccc2Cl)oc2ccc(F)cc12	-5.4%
Cc1ccc(CN2C(=O)N(c3ccc(F)cc3)C(=O)C2CC(=O)Nc2ccc(Cl)cc2)cc1 (stereo not given)	5.1%
CC(=O)c1cccc(NC(=O)CSc2nnc3ccc(-c4ccc(Cl)cc4)nn23)c1	-3.0%
COc1ccc(NC(=O)C(Cc2ccccc2)NS(=O)(=O)c2ccc3c(c2)oc(=O)n3C)c(OC)c1 (stereo not given)	-5.7%
CCc1ccccc1NC(=O)CN1C(=O)CCSc2ccc(S(=O)(=O)N3CCCC3)cc21	-4.6%
CCOC(=O)CNC(=O)N1CCc2cc(S(=O)(=O)N3CCC(C)CC3)ccc21	-2.0%
O=C(CN1CCN(Cc2ccc(F)cc2)C1=O)NCc1ccc(F)cc1	-1.4%

The list itself (from the top)
SMILES	miR-21 FLuc
Cc1c(C(=O)N(Cc2ccco2)Cc2ccccc2Cl)oc2ccc(F)cc12	-5.4%
Cc1ccc(CN2C(=O)N(c3ccc(F)cc3)C(=O)C2CC(=O)Nc2ccc(Cl)cc2)cc1 (stereo not given)	5.1%
CC(=O)c1cccc(NC(=O)CSc2nnc3ccc(-c4ccc(Cl)cc4)nn23)c1	-3.0%
COc1ccc(NC(=O)C(Cc2ccccc2)NS(=O)(=O)c2ccc3c(c2)oc(=O)n3C)c(OC)c1 (stereo not given)	-5.7%
CCc1ccccc1NC(=O)CN1C(=O)CCSc2ccc(S(=O)(=O)N3CCCC3)cc21	-4.6%
CCOC(=O)CNC(=O)N1CCc2cc(S(=O)(=O)N3CCC(C)CC3)ccc21	-2.0%
O=C(CN1CCN(Cc2ccc(F)cc2)C1=O)NCc1ccc(F)cc1	-1.4%
O=C(Nc1ccc(F)c(Cl)c1)N1CCC(CN2CCOCC2)CC1	-6.9%
CCN(c1ccccc1C)S(=O)(=O)c1ccc(N2CCCCS2(=O)=O)cc1	17.1%
CCc1ccccc1NC(=O)Cn1c(=O)ccc2cc(S(=O)(=O)N3CCC(C)CC3)ccc21	0.5%
O=C(NC1CCCCC1)c1c[nH]c2ccc(S(=O)(=O)Nc3ccccc3F)cc2c1=O	28.9%
COC(=O)c1cc2oc(C)cc2n1Cc1cccc(Cl)c1	0.2%
Cc1c(C(=O)NCc2ccccc2Cl)cccc1-n1cnc2cccnc21	-11.2%
Cc1cc(O)c(C(c2ccccc2)N2CCN(c3ccccc3F)CC2)c(=O)n1Cc1ccco1 (stereo not given)	-0.5%
NS(=O)(=O)c1ccc(CCNC(=O)c2nc(SCc3ccccc3F)ncc2Cl)cc1	6.1%
O=C(NCC(c1cccnc1)N1CCOCC1)C(=O)Nc1ccc(Cl)cc1 (stereo not given)	-0.8%
Cc1cc(-c2nc3ncccc3o2)ccc1NC(=O)COc1ccc(C(C)(C)C)cc1	-16.4%
CCC(CC)C(=O)N1CCc2cc(OC)c(OC)cc2C1COc1ccc(F)cc1 (stereo not given)	0.1%
CCCCNC(=O)CSc1nc2nc(C)c(Cc3ccccc3C)c(C)n2n1	0.4%
COCCN(CCOC)S(=O)(=O)c1ccc(C(=O)Nc2sc3c(c2C(=O)OC)CCN(C)C3)cc1	-1.4%
Cc1oc(-c2ccc(C(=O)NCc3ccc(N(C)C)cc3)cc2)nc1COc1ccccc1	0.8%
CCn1c(=O)c2c(nc3n2CCN3c2ccc(OC)cc2)n(C)c1=O	-11.1%
COc1ccc(OC)c(C2CC(=O)Nc3ccc4ccccc4c32)c1 (stereo not given)	18.4%
CC(=O)N1CCc2cc(S(=O)(=O)NC(Cc3ccccc3)C(=O)NCc3ccccc3)ccc21 (stereo not given)	-6.0%
COc1ccc(CCN2C(=O)N(c3ccc(F)cc3)C(=O)C2CC(=O)Nc2ccccc2)cc1OC (stereo not given)	-2.0%
Cc1ccc(C(Nc2ccccn2)c2ccc3cccnc3c2O)cc1 (stereo not given)	19.9%
O=C(CCn1c(=O)c2cccn2c2cccnc21)NCc1ccccc1Cl	-3.1%
COc1ccc(CNC(=O)c2cccc(N3CCCS3(=O)=O)c2)cc1OC	25.9%
CC(C)CN(CC(C)C)C(=O)C1CCCN(S(=O)(=O)c2ccc3c(c2)oc(=O)n3C)C1 (stereo not given)	-1.0%
CCOC(=O)Cc1c(C(=O)OCC)nnc2c(-c3ccccc3)c(C)nn12	-13.6%
O=C(CC(NCc1cccnc1)C(=O)O)Nc1ccc(O)cc1 (stereo not given)	0.1%
COc1ccc(N2CCN(CCCNC(=O)Cn3c(-c4cccs4)cc4ccccc43)CC2)cc1	3.3%
Cc1ccc(CNC(=O)c2ccc(CSc3nc4ccncc4n3Cc3ccc(C)cc3)cc2)cc1	-2.8%
Cc1cccc2sc(N(Cc3cccnc3)C(=O)CCc3ccccc3)nc12	-1.3%
CCCNC(=O)CN1CCN(c2ccc(NC(=O)c3ccc(OC)cc3)cc2C(=O)O)CC1	-3.2%
O=C(Nc1sc2c(c1C(=O)NCc1cccnc1)CCCC2)c1cc(=O)c2ccccc2o1	-1.3%
COc1ccc(-c2nc(CNS(=O)(=O)c3ccc(C)cc3)cs2)cc1	10.6%
COc1ccc(OC(C)C(=O)NCc2nc(-c3ccc(Cl)cc3)no2)cc1 (stereo not given)	?
CCOc1ccc(CCNC(=O)CSc2nc3ccccc3nc2Cc2ccc(C)cc2)cc1OCC	19.1%
CCOC(=O)c1cc(-c2ccccc2)n(-c2cccc(C(=O)Nc3cccc(F)c3)c2)c1C	?
COc1ccc(NC(=O)c2ccco2)cc1NC(=O)COc1cc(C)ccc1C(C)C	8.7%
CCC(C)NC(=O)c1sc2nc3n(c(=O)c2c1C)CCC3 (stereo not given)	-23.1%
COc1ccccc1NC(=O)c1oc2ccccc2c1NC(=O)C1CCCCC1	-3.2%
COC(=O)c1cnc(N2CCN(c3ccc(F)cc3)CC2)c2ccccc12	5.7%
COc1ccccc1CCNc1ncnc2c1nnn2C	-0.4%
O=c1ccc(-c2ccccc2)nn1Cc1c(F)cccc1Cl	-15.9%
CCOc1ccc(-c2cc(C(=O)N3CCN(c4ccc(C)cc4)C(C)C3)c3ccccc3n2)cc1 (stereo not given)	-9.4%
COc1ccc(CNC(=O)c2sc3nc4n(c(=O)c3c2C)CCC4)cc1	-10.2%
O=C(NCC(c1ccc2c(c1)OCO2)N1CCOCC1)c1ccc(F)cc1 (stereo not given)	3.1%
Cc1cc(C)cc(OCC(=O)Nc2c(C(=O)c3ccccc3)oc3ccccc23)c1	0.7%
CCOC(=O)CSc1nc2ccc(NC(=O)COc3ccccc3)cc2s1	3.0%
CCOC(=O)N1CCc2c(sc(NCc3ccc(OC)c(OC)c3OC)c2C(=O)Nc2ccc(OC)cc2OC)C1	28.3%
O=C(NC1CCCCC1)c1ccc(CSc2nc3ccncc3n2Cc2cccc(F)c2)cc1	?
Cc1cc(C)c(NC(=O)c2sc3nc(C)cc(C)c3c2NC(=O)c2ccccc2)c(C)c1	5.2%
CCc1ccc(Cn2c(CNS(=O)(=O)c3ccc(F)c(Cl)c3)nc3cccnc32)cc1	-19.2%
COc1ccc(-c2nc3scc(CCNS(=O)(=O)c4ccc5c(c4)OCCO5)n3n2)cc1	-0.2%
O=C(Cn1ncc2ccsc2c1=O)N1CCN(c2ccc(F)cc2)CC1	4.5%
O=C(Nc1ccc(Cl)cc1)c1cc2c(-c3ccccc3)nn(-c3ccccc3)c2s1	-4.7%
CC1CCC(NC(=O)c2ccc(CS(=O)(=O)c3c(Cl)cccc3Cl)o2)CC1 (stereo not given)	12.4%
O=C(COC(=O)C(Cc1c[nH]c2ccccc12)NC(=O)c1ccc(Cl)cc1)c1ccc(Cl)cc1 (stereo not given)	-3.7%

In a second layout: 3 of the compounds above
Cc1cc(C)c(NC(=O)c2sc3nc(C)cc(C)c3c2NC(=O)c2ccccc2)c(C)c1
  miR-21 FLuc: 5.2%
CCc1ccc(Cn2c(CNS(=O)(=O)c3ccc(F)c(Cl)c3)nc3cccnc32)cc1
  miR-21 FLuc: -19.2%
COc1ccc(-c2nc3scc(CCNS(=O)(=O)c4ccc5c(c4)OCCO5)n3n2)cc1
  miR-21 FLuc: -0.2%

The results go on:
SMILES	miR-21 FLuc
CCCCn1c(SCC(=O)c2ccccc2)nc2sc3c(c2c1=O)CCCC3	-5.8%
C=C(C)Cn1c(SCC(=O)Nc2cc(C)ccc2C)nc2sc3c(c2c1=O)CCCC3	3.7%
CC(=O)c1ccc(N2CCN(c3ncnc4c3c(-c3ccccc3)cn4-c3cccc(C)c3)CC2)cc1	-1.5%
COc1ccccc1-c1c(C)nn2c(N3CCN(c4ccccc4)CC3)cc(C)nc12	0.5%
CCC(C)OC(=O)/C(C#N)=C/c1ccc(-c2ccc(Br)cc2)o1 (stereo not given)	2.4%
CCc1ccc(CNC(=O)c2cc3c(s2)-c2ccccc2OC3)cc1	3.6%
Cc1ccc(CN2C(=O)C(O)(CC(=O)c3ccc(C)cc3)c3ccccc32)cc1 (stereo not given)	0.2%
O=C(NCc1ccccc1)c1ccc2c(c1)N(Cc1ccccc1)C(=O)c1ccccc1S2(=O)=O	-0.1%
Cc1nc2ccn(Cc3ccccc3)c(=O)c2cc1C(=O)Nc1ccc(F)cc1Cl	-3.2%
Cc1cc(C)c(NC(=O)c2ncoc2-c2ccco2)c(C)c1	11.5%
Cc1ccc(CN(C(=O)c2ccccc2)c2ccccn2)o1	-2.6%
Cc1ccc(CCNC(=O)CCSCc2ccccc2Cl)cc1	-2.1%
CCOc1cc(C(=O)Nc2ccc(-c3nc4ncccc4o3)cc2C)cc(OCC)c1OCC	-3.3%
Cc1oc(-c2ccc(C(=O)Nc3cc(F)ccc3F)cc2)nc1COc1ccccc1	-3.7%
COc1cccc(CNC(=O)Nc2cc(C(=O)NCc3cccc(F)c3)ccc2N2CCCC2)c1	25.8%
Cc1ccc(-n2c(=O)c3cccnc3n2CC(=O)Nc2cc(C)cc(C)c2)cc1	1.1%
CC1CCN(S(=O)(=O)c2ccc3c(c2)CCC(=O)N3CC(=O)Nc2cccc(C#N)c2)CC1	-4.0%
COc1cccc(CNC(=O)C(=O)NCC(c2cccs2)S(=O)(=O)c2ccccc2)c1 (stereo not given)	-5.1%
O=C(Nc1ccc(Oc2ccccc2)cc1)C1CCN(S(=O)(=O)c2ccccc2)CC1	23.8%
COC(=O)c1c(C)sc(-c2c(-c3ccc(OC)c(F)c3)[nH]c3c2c(=O)n(C)c(=O)n3C)c1O	1.5%
CCn1c(C(=O)N2CCC(C(=O)NCCc3ccccc3)CC2)cc2sccc21	8.4%
COc1ccc(-c2noc(CNS(=O)(=O)c3ccc(Br)cc3)n2)cc1OC	20.3%
CCOc1ccc(CNC(=O)c2ccc3c(c2)c(C)c(C)n3C)cc1	-3.3%
COc1ccc(-n2c(/C=C/c3cccc4ccccc34)nc3ccccc3c2=O)cc1Cl	-4.1%
CCOc1ccc2oc(=O)cc(CN3CCN(C(=O)c4cccc(Cl)c4)CC3)c2c1	?
Cc1ccc(NC(=O)N2CCC(CN3CCC(C)CC3)CC2)cc1F	-27.1%
Clc1ccccc1Cc1cn2cc(-c3ccccc3)nc2s1	-14.5%
Cc1ccc(-c2nn3c(=O)cc(CN4CCN(C(=O)c5ccc(C(C)(C)C)cc5)CC4)nc3s2)cc1	2.9%
Cc1oc(-c2ccc(C(=O)NCc3ccc(Cl)cc3)cc2)nc1CS(=O)(=O)c1ccccc1	-21.3%
Cc1cc(C)c2c(NC(=O)c3ccccc3)c(C(=O)Nc3ccc(F)cc3)sc2n1	-2.6%
COc1ccc(CN(Cc2ccco2)C(=O)c2ccccc2F)cc1	-1.9%
Cc1nn2c(=O)cc(COC(=O)c3cccs3)nc2s1	-47.2%
CC(=O)N1CCc2cc(Br)cc(S(=O)(=O)CCC(=O)N3CCN(c4ccc(F)cc4)CC3)c21	11.4%
CC(C)n1c(=O)c2oc3ccccc3c2n(CC(=O)Nc2ccccc2Cl)c1=O	-4.0%
Cc1ccc(NC(=O)Cn2ccn(-c3ccc(F)c(F)c3)c(=O)c2=O)cc1C	2.1%
Cc1cccc(OCC(=O)N(Cc2cccs2)c2ccc(Cl)cc2)c1C	25.7%
COc1ccc(-c2nc(CNC(=O)Nc3ccccc3)c(C)o2)c(OC)c1	-16.6%
Cc1ccc(CNC(=O)c2cc(S(=O)(=O)N3CCCC(C)C3)cn2C)cc1 (stereo not given)	24.9%
CCc1ccc(C2N3CC4(C)CN2CC(c2ccccc2)(C3)C4=O)cc1 (stereo not given)	?
CC(C)NC(=O)CC(=O)Nc1ccc2nc3n(c(=O)c2c1)CCCCC3	-4.3%
O=C(Cn1c(=O)n(-c2ccc(F)cc2)c(=O)c2sccc21)Nc1cccc(C(F)(F)F)c1	-2.1%
Cc1ccc(C)c(N2CCN(CCCNC(=O)Cn3c(-c4cccs4)cc4ccccc43)CC2)c1	25.7%
COc1ccc(N(CC(=O)NCCc2ccccc2)S(=O)(=O)c2c(C)nn(C)c2C)cc1	2.9%
CCOC(=O)c1cc2c(=O)n3ccccc3nc2n(Cc2ccco2)c1=NC(=O)c1ccc(F)cc1	1.2%
CCOC(=O)c1cc2c(=O)n3ccccc3nc2n(C(C)C)c1=NC(=O)C(C)(C)Oc1ccc(Cl)cc1	0.1%
CCN(CC)C(=O)c1sc2c(c1C)c(=O)n(Cc1ccccc1)c(=O)n2Cc1cc(C)ccc1C	17.8%
N#Cc1ccccc1Cn1c(=O)n(CCCC(=O)NCc2ccc3c(c2)OCO3)c(=O)c2sccc21	0.4%
O=C(NCc1ccccc1Cl)NCc1noc2ccccc12	-44.5%
CCc1ccccc1NC(=O)Cn1nc(N2CCN(c3ccccc3OC)CC2)ccc1=O	1.6%
Cn1nc(-c2ccc(Cl)cc2)nc2c(=O)n(C)c(=O)nc1-2	?
COC(=O)c1c(NC(=O)c2nc(SCc3ccc(F)cc3)ncc2Cl)sc2c1CCCC2	4.9%
COC(=O)CN1C(C(=O)c2ccccc2)=C(OC(=O)c2ccccc2)c2ccccc2S1(=O)=O	28.1%
NC(=O)c1nc(Nc2ccccc2)sc1NC(=O)c1c(F)cccc1F	-8.5%
CC(=O)Nc1c(C)nn(-c2ccccc2)c1N1CCC(C(=O)Nc2cc(F)ccc2F)CC1	3.6%
Cc1cc(C)cc(Nc2cc(-c3ccccc3)nc(C)n2)c1	28.6%

Compound activity (PubChem BioAssay)

This is a subset (hit frequency here may not be typical).
